Sa growth 42C: blocks Staphylococcus aureus growth. S. aureus RN4220 growth, OD600, 20 h, 42 °C; stronger effect = lower value. relative growth, % (no concentration beside the values). actives 0.53% (n = 170,000). AID 720641;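 active = growth at 42 °C up to 50% and 20 or more points under that at 30 °C, or under 10% at both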;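 also: 300 nL library stock went into each well; scaled to the means of positive and negative controls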
GIV Gai3 FP: GIV-Galpha-i interaction inhibition; P08753; AID 1224905; actives 0.42% (n = 210,000); percent of control (FP), % (test concentration not listed); Galpha-i3/FITC-GIV peptide fluorescence polarization, 90 min; stronger effect = lower value; scaled: aluminum fluoride 0%, vehicle 100%;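 active = replicate mean at 85% of control or lower, very high polarization wells dropped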;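 also: wells of about 15 µL received 100 nL stock; the first replicate is given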
Target sequence (P08753 whole entry, looked up): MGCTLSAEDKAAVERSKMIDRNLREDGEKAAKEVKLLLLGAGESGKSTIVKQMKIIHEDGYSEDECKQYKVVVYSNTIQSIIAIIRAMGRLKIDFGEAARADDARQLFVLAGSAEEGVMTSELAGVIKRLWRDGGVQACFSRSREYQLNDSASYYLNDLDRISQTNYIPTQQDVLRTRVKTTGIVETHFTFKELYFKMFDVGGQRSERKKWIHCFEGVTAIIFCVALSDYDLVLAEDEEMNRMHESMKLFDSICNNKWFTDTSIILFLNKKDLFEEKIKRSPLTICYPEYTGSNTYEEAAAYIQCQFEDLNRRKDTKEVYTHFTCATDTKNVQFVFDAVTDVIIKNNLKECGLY
HCMV UL50-53 inh: disrupts HCMV UL50-UL53 complex binding | inhibition, % (no concentration beside the values) | HTRF UL50-UL53 interaction, normalized percent inhibition | actives 0.15% (n = 190,000) | AID 1918969;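 active = both replicates at 50% or more, plus weaker picks with an unusually low signal ratio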;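 also: stock transfer was 100 nL into about 20 µL; 0% = negative control wells and 100% = wells with untagged competitor protein; inactives centre near -12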
Sa growth 42C second temp: second read-out of Sa growth 42C, no call of its own (marks repeat the call); relative growth, %; measured here: growth at 30 °C;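 optical density after 20 h as mean of two plates; 100% = untreated growth and lower means inhibition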
Numbers without * were called inactive; x = not tested or not shown; & = joins results of further samples.

molecule	Sa growth 42C	Sa growth 42C second temp	GIV Gai3 FP	HCMV UL50-53 inh
O=C(NCC(O)c1ccc2ccccc2c1)c1c(F)cccc1F (stereo unspecified)	x	x	100	-25
COc1ccc(C2CC(=O)Nc3c2c(=O)nc2c(C)cccn32)cc1OC (stereo unspecified)	112	93	106	x
COC(=O)c1cnc(-n2ncc(C#N)c2N)nc1C(F)(F)F	92	85	103	-13
CCOc1ccc(CNC(=O)CSc2nc3ncccc3n3cccc23)c(OC)c1	x	x	109	-38
Cc1ccc(NC2=C(c3ccc(C(F)(F)F)cc3)C(=O)c3ccccc32)cc1F	94	99	99	1
NC(=O)CSc1nnc(-c2cccnc2)n1-c1ccccc1	115	87	104	x
COc1cc(OC)c(NS(=O)(=O)c2c(C(=O)N3CCC(C)CC3)c(C)n(C)c2C)cc1Cl	72	90	102	x
COc1ccc(-c2c(C(F)(F)F)oc3c(CN4CC(C)OC(C)C4)c(O)ccc3c2=O)cc1OC (stereo unspecified)	x	x	101	-1
Cc1ccccc1OCc1nn2c(C(C)C)nnc2s1	x	x	101	0
O=C(NCCc1c[nH]c2ccccc12)c1cc2ccccc2oc1=O	96	61	x	-52
COCCNC(=O)c1ccc(Cn2c(=O)c3cc(OC)c(OC)cc3n(Cc3ccc(Cl)cc3)c2=O)cc1	x	x	101	-15
COc1ccc(N(C)C(=O)c2nn(-c3ccc(C)cc3)c(=O)n(C)c2=O)c(OC)c1	99	92	101	x

Some of these compounds in order of molar mass, ascending:
molecule	Sa growth 42C	Sa growth 42C second temp	GIV Gai3 FP	HCMV UL50-53 inh
COc1ccc(N(C)C(=O)c2nn(-c3ccc(C)cc3)c(=O)n(C)c2=O)c(OC)c1	99	92	101	x
COc1cc(OC)c(NS(=O)(=O)c2c(C(=O)N3CCC(C)CC3)c(C)n(C)c2C)cc1Cl	72	90	102	x
COCCNC(=O)c1ccc(Cn2c(=O)c3cc(OC)c(OC)cc3n(Cc3ccc(Cl)cc3)c2=O)cc1	x	x	101	-15

(further entries)
molecule	Sa growth 42C	Sa growth 42C second temp	GIV Gai3 FP	HCMV UL50-53 inh
COc1ccc(CNC(=O)C(=O)NCC(c2ccc3c(c2)OCO3)N2CCOCC2)cc1 (stereo unspecified)	116	90	96	x
CCOc1ncccc1C(=O)Oc1ccc2c(c1)OCO2	92	83	x	-26
Cc1cc(C(=O)OCC(=O)N2c3ccccc3Sc3ccccc32)no1	86	94	x	-7
O=C1C(=O)N(C2CCN(C(=O)C3CCCCC3)CC2)CCN1Cc1cccc(F)c1	x	x	101	-15
COc1cc(OC)c(Nc2nc3ccc(C(=O)c4ccccc4)cc3n3c(C)nnc23)cc1Cl	125	94	110	1
Cc1ccc(C)c(COC(=O)c2nnn(-c3ccc(C)c(C)c3)c2C)c1	x	x	100	-11
O=C(COc1ccc([N+](=O)[O-])cc1)Nc1nc2c(s1)CCCC2	103	94	100	-4
CC(=O)N1CC=C2C(C#N)=C(N)C(C#N)(C#N)C(CCc3ccccc3)C2C1 (stereo unspecified)	86	85	112	-8
CC(OC(=O)c1ccc(Oc2ccccc2)cc1)C(N)=O (stereo unspecified)	107	92	x	-4
COc1ccc(/C=C2\SC(=O)N(CC(=O)Nc3sc4c(c3C(N)=O)CCCC4)C2=O)cc1OC	x	x	101	-2
COc1cc2cccc(OC)c(=O)c2c(O)c1OC	93	83	x	-71
O=C(CSc1nc(C2CC2)n(-c2ccccc2)n1)Nc1cc2[nH]c(=O)[nH]c2cc1Br	88	68	x	-24
COc1cc2c(cc1OC)C(C)N(S(=O)(=O)c1ccc(-c3ccccn3)s1)CC2 (stereo unspecified)	113	81	107	-28
CC(=O)Nc1ccc(S(=O)(=O)NCC2CCC(C(=O)NCc3ccccc3)CC2)cc1 (stereo unspecified)	106	89	100	x
CCN(CC)c1nc(-c2ccc(C(C)(C)C)cc2)nc2ccccc12	102	85	104	-29
Nc1c(C(=O)c2ccccc2)sc2snc(SCC(=O)c3ccccc3)c12	89	78	x	-58
COC(=O)c1cnc(Nc2cc(OC)ccc2OC)c2ccccc12	101	100	101	-7
CCC1Sc2ccc(S(=O)(=O)CCC(=O)Nc3ccccc3C)cc2NC1=O (stereo unspecified)	98	92	96	-8
CCCn1c2ccccc2c2cnn(CC(=O)NCc3ccccc3Cl)c(=O)c21	160	93	102	x
CC(C)(C)NC(=O)C12CC3CCC(CC(C3)C1)C2	68	99	98	x
O=C(O)C12CC3CC(C1)CC(n1ncc(NCCc4ccccc4)c(Cl)c1=O)(C3)C2	66	88	107	x
CSc1ccc(/C=C(\C#N)C(=O)C(C)(C)C)cc1	98	87	x	-9
CCN1CCCC1CNC(=O)C1c2ccccc2C(=O)N(C)C1c1ccc(OC)cc1 (stereo unspecified)	104	90	108	-14
CCOC(=O)c1cc(C)n(-c2ccc(-c3csnn3)cc2)c1C	84	67	101	-4
c1ccc(-c2cc(-c3cn4cccnc4n3)on2)cc1	99	101	99	-10
Cc1ccc2nc(C(=O)O)c(C(=O)O)nc2c1	87	79	104	-49
Cc1cc(NC(=O)NC(=O)c2csnn2)no1	115	89	107	-42
N#CCOc1nc(C(F)(F)F)nc2c1cnn2-c1ccccc1	86	86	x	-8
CN(C)c1ccc2sc(=S)[nH]c2c1	44	56	106	x
COc1ccc(OC)c(S(=O)(=O)N2CCC(n3c(C)nc4cccnc43)CC2)c1	90	84	101	x
NC(=O)C1CN(C(=O)CN2CSCC2=O)c2ccccc2O1 (stereo unspecified)	76	92	x	-26
O=C(c1nc(-c2ccc(Cl)cc2)n2c1CCCCC2)N1CCCCCC1	89	86	101	x
Cc1cccc2c1-c1sc(C(=O)N3CCC(C)CC3)cc1CO2	x	x	103	-29
CCC(C)NC(=O)c1nn(-c2ccc(C)cc2)nc1CO (stereo unspecified)	97	86	96	-30
CCN1Cc2ccccc2CC1C(=O)O (stereo unspecified)	101	79	105	-26
O=c1[nH]c(-c2ccc3c(c2)OCO3)nc2ccccc12	103	101	101	-4
CSc1ccc(CCNC(=O)CCCn2c(=O)c3cccn3c3ccccc32)cc1	108	76	96	-15
COc1ccc(OC)c(-n2c(SCC(=O)N3CCOCC3)nnc2-c2c[nH]c3ccccc23)c1	85	88	105	1
NS(=O)(=O)c1ccc(NC(CNS(=O)(=O)c2ccccc2)c2ccccc2)cc1 (stereo unspecified)	x	x	99	-2
COc1cc(/C=C(\C#N)C(=O)N2CCOCC2)cc(OC)c1OC	101	91	104	-13
COc1ccc(CNC(=O)CN(c2ccccc2OC)S(=O)(=O)c2ccc(C)cc2)cc1	112	100	99	x
COC(=O)c1c(OC)ccc(NC=C(C#N)C#N)c1OC	94	89	108	-49
CC(C)(C)C1(c2ccccc2)NC(=O)N(CC(=O)N2CCOCC2)C1=O (stereo unspecified)	x	x	102	-4
COc1ccc(C2=NS(=O)(=O)N(C)C(C(=O)N3CCC(C)CC3)=C2)cc1OC	97	86	101	x
Cc1c(Cl)cccc1NC(=O)c1cnc2sc(N3CCOCC3)nn2c1=O	91	101	103	x
O=C(NC1CCN(Cc2ccccc2)CC1)C1CCN(c2cnccn2)CC1	x	x	67*	-14
COc1ccccc1N(CC(=O)NC1CC2CCC1C2)S(=O)(=O)c1ccc(C)cc1 (stereo unspecified)	98	83	99	x
CCOC(=O)Nc1ccc2c(COC(=O)c3nc4nc(C)ccn4n3)cc(=O)oc2c1	100	96	x	-11

Entries of single compounds, quoted from the list.
O=C(NC1CCN(Cc2ccccc2)CC1)C1CCN(c2cnccn2)CC1 is listed with Sa growth 42C: x; Sa growth 42C second temp: x; GIV Gai3 FP: 67*; HCMV UL50-53 inh: -14
COc1ccc(C2=NS(=O)(=O)N(C)C(C(=O)N3CCC(C)CC3)=C2)cc1OC is listed with Sa growth 42C: 97; Sa growth 42C second temp: 86; GIV Gai3 FP: 101; HCMV UL50-53 inh: x

The results go on:
molecule	Sa growth 42C	Sa growth 42C second temp	GIV Gai3 FP	HCMV UL50-53 inh
CCOc1ccc2c(c1)cc(C(=O)Nc1ccc3c(c1)OCCO3)n2C	x	x	101	10
Cc1cccc(NC(=O)CSc2sc3c(=O)[nH]c(=O)[nH]c3c2C#N)c1	78	85	104	x
CCOc1ccc(CC(=Nc2ccccc2O)C2=C(O)CC(C)(C)CC2=O)cc1OCC	86	78	x	-13
CCC(=O)NC1=NC(=O)/C(=C/c2cn(C(=O)CC)nc2-c2ccccc2)S1	92	74	315	x
Cc1csc2nc(SCC(=O)NCc3ccccc3)[nH]c(=O)c12	102	100	97	-8
O=C(C1COc2ccccc2O1)N(Cc1cccnc1)c1nc2c(Cl)cccc2s1 (stereo unspecified)	102	78	103	x
CCCSc1ncc(CO)n1Cc1ccccc1	106	86	104	-24
CCC(Oc1ccccc1F)C(=O)NCc1csc(-c2ccc(OC)cc2)n1 (stereo unspecified)	x	x	98	-23
O=C(NCCc1nc2cccnc2n1C1CCCC1)Nc1ccc2c(c1)OCO2	x	x	117	6
C[N+](C)(C)CCOC(=O)CCC(=O)OCC[N+](C)(C)C	97	99	108&103	-35&-16
COC(=O)c1cc(Cl)cc(Cl)c1O	97	105	99	2
CCC(=O)Nc1ccccc1-c1nc2ccccc2n(CC(=O)c2ccc(C)cc2)c1=O	99	87	102	-2

Overlap with the part before: 7 entries; new compounds follow.
molecule	Sa growth 42C	Sa growth 42C second temp	GIV Gai3 FP	HCMV UL50-53 inh
O=C(C1COc2ccccc2O1)N(Cc1cccnc1)c1nc2c(Cl)cccc2s1 (stereo unspecified)	102	78	103	x
CCCSc1ncc(CO)n1Cc1ccccc1	106	86	104	-24
CCC(Oc1ccccc1F)C(=O)NCc1csc(-c2ccc(OC)cc2)n1 (stereo unspecified)	x	x	98	-23
O=C(NCCc1nc2cccnc2n1C1CCCC1)Nc1ccc2c(c1)OCO2	x	x	117	6
C[N+](C)(C)CCOC(=O)CCC(=O)OCC[N+](C)(C)C	97	99	108&103	-35&-16
COC(=O)c1cc(Cl)cc(Cl)c1O	97	105	99	2
CCC(=O)Nc1ccccc1-c1nc2ccccc2n(CC(=O)c2ccc(C)cc2)c1=O	99	87	102	-2
Cc1cc(C)c2c(-c3ccccc3)[nH]nc2n1	88	86	99	-18
CCCCN(CC)CCNC(=O)c1cc2c(=O)n(CC)c3ccccc3c2s1	106	91	103	-77
COC(=O)c1sccc1OC	x	x	104	2
CC1(C)CC(=O)c2cc(C#N)c(=O)n(-c3ccc(Cl)cc3)c2C1	99	90	102	-31
O=C(C1CC1)n1cc(C(=S)N2CCOCC2)c2ccccc21	103	108	101	-9
CCOC(=O)c1ccc(NC(=O)c2ncn(-c3ccccc3)n2)cc1	114	94	110&102	-4&2
COc1c(I)cc(Cl)c2cccnc12	88	88	99	4
Brc1cccc(-c2noc(Cc3ccccc3)n2)c1	95	100	107	-5
COC(=O)c1sccc1NN1C(=O)c2ccccc2C1=O	86	89	102	-34
Cc1cc(NC(=O)COC(=O)C(C)N2C(=O)C3CC=CCC3C2=O)no1 (stereo unspecified)	92	93	x	1
O=C1c2ccccc2C(=O)N1Cc1nc2ccc(Br)cn2c1NC1CCCCC1	113	94	106	x
COc1ccc2c(c1)nc(COc1ccccc1)n2C	80	86	100	x
O=C(CSc1nnc2n(CC3CCCO3)c(=O)c3sccc3n12)N1CCc2ccccc2C1 (stereo unspecified)	x	x	100	-1
O=C(CCCN1C(=O)c2ccccc2C1=O)NC1CCCC1	84	78	x	-8
O=C(O)c1ccc2c3ccc(C(=O)O)c4c(C(=O)O)cc5c(c6c(cc(C(=O)O)c1c26)S5(=O)=O)c43	93	84	x	10
O=C(COc1ccccc1Cl)Nc1ccc2nc(SCC(=O)N3CCOCC3)sc2c1	106	88	101	-22
COC(=O)c1ccccc1NC(=O)CSc1nc2ncccc2o1	x	x	107	11
COc1cc2c(cc1OC)C(C)N(C(=O)c1ccno1)CC2 (stereo unspecified)	111	85	139	-14

High-throughput results from PubChem.
